TRPML1 agonist – human mucolipin-1 channel agonism | TRPML1-expressing cells, Ca2+ dye fluorescence, FDSS; host cell line not named in the record; reference of the full effect not given here | activation, % (concentration not given with the values) | actives 0.12% (n = 410,000) | AID 624414; in the data active = activation above about 50%; inconclusive = about 30% to 50%; inactive = below about 30%; note: 0% is about no effect; the text of the record puts the active cut at 80%
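Tetracycline-induced TRPML1-DL cells are seeded and incubated overnight before loading with a no-wash Ca2+ dye and quencher. Agonist activity is taken from the 110 s fluorescence read following compound pin-transfer on an FDSS, before EC80 54-4 challenge.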
TRPML1 blocker – blocks the human TRPML1 channel. TRPML1-inducible cells, Ca2+ dye fluorescence, FDSS; stronger effect = lower value; inhibition of EC80 agonist-evoked calcium signal. Q9GZU1. activity change, negative = inhibition, % (concentration not given with the values). AID 624415. actives 0.02% (n = 390,000); in the data active means activity change below about -50%; inconclusive means about -30% to -50%; inactive means above about -30%;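 note: stimulus is agonist 54-4 at its EC80 concentration; % is set by controls: 0 for no effect and ±100 for the full control effect; compound concentration not given in the record; the text of the record puts the active cut at -80%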
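TRPML1-DL cells, Tet-induced overnight (~16 h, 37 °C) at 1,500 cells/well, were loaded with Ca8 no-wash dye plus quencher for 45-90 min at room temperature. Compounds were pinned during FDSS kinetic reading; agonist 54-4 at EC80 (4 uM final) then added.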
PINK1 expr mod – changes PINK1 expression; actives 0.2% (n = 410,000); PINK1 immunofluorescence, high-content cytometry, 24 h; Potency, µM (top dose mostly 76.6 µM), for the others: at the highest dose activation (PINK1 increase), most hits filed as activators; AID 624263; active = well fitted activation curve with a large enough effect; inconclusive = small, poorly fitted or top-dose-only effect; inactive = flat fitted curve, though single readings scatter; cell line not stated here;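 note: potency is the fitted concentration of half-maximal effect; % of control where 0% means no effect; nearly all actives have a fitted effect of over 65% in size; a mitochondrial uncoupler was the plate control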
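Stable cell line treated 24 h with compounds at 5 concentrations (CCCP controls), then fixed and immunostained for PINK1 plus nuclear and cell stains; PINK1 immunofluorescence quantified by laser-scanning microplate cytometry.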
CtBP-E1A inh – blocks the CtBP interaction with E1A; AlphaScreen GST-E1A/His-CtBP binding, 1536-well; stronger effect = lower value; control for the full effect not named in the record; actives 0.49% (n = 340,000); activity change, % (concentration not given with the values); AID 651724; in the data active means activity change below about -65%; inconclusive means about -30% to -65%; inactive means above about -30%; note: % is set by controls: 0 for no effect and ±100 for the full control effect
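Steps: dispense buffer (Tris pH 8.0, NaCl 300 mM, TCEP 1 mM, BSA, Tween 20); add 5X protein mix (GST-E1A, His-CtBP, 125 nM each); pin 23 nL compound; 2 h at 37 °C, dark; add 5X beads (50 ug/mL); 1 h; read.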
D2 ag – activates the human D2 dopamine receptor. P14416. DiscoveRx PathHunter D2 beta-arrestin, luminescence, 90 min; 100% = 57 uM dopamine signal. activation, % (concentration not given with the values). actives 0.084% (n = 360,000); in the data active = activation above about 40%; inconclusive = about 15% to 40%; inactive = below about 15%; note: compound concentration not given in the record; the text of the record calls up to 30% inactive
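DiscoveRx PathHunter D2 beta-arrestin cells (2,100/well) attached overnight, then compound-stimulated 90 min at 37 C in HBSS/10 mM HEPES/0.1% Tween-20 buffer; beta-galactosidase complementation read by luminescence after 1 h at ambient temperature. Dopamine 57 uM final (EC100) as control.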
Six1-Eya2 inh – blocks human Six1 binding to Eya2. Q15475+O00167. AlphaScreen GST-Six1/His-Eya2 binding, biochemical; stronger effect = lower value; control for the full effect not named in the record. activity change, % (no concentration beside the values). actives 0.56% (n = 360,000); in the data active = activity change below about -65%; inconclusive = about -30% to -65%; inactive = above about -30%; note: % is set by controls: 0 for no effect and ±100 for the full control effect; compound concentration not given in the record
Target sequence (O00167 whole entry, looked up): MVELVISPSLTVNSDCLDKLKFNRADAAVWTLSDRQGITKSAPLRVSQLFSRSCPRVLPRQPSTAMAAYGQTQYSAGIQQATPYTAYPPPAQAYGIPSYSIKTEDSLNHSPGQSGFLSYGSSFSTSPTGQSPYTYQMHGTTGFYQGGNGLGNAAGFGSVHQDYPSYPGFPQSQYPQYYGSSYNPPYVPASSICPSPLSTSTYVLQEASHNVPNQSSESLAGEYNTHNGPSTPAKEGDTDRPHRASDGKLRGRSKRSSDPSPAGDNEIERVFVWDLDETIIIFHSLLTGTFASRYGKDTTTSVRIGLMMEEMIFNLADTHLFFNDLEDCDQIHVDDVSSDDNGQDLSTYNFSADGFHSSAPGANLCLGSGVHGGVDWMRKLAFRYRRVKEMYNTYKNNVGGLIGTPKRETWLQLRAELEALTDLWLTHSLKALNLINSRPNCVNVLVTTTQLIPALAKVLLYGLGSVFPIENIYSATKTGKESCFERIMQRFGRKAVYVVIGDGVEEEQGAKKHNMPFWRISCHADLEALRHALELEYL
Target sequence (Q15475 whole entry, looked up): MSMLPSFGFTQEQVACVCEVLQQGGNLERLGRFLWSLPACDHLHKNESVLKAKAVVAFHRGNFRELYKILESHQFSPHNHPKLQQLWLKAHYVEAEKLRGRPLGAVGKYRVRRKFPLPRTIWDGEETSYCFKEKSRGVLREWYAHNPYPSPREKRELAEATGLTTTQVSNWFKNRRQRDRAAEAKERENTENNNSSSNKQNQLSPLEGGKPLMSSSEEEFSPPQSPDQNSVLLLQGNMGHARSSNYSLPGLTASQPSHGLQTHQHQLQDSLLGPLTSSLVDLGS
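AlphaScreen with GST-Six1 and His-Eya2 (5X mix: 250 nM and 500 nM), glutathione donor and nickel acceptor beads; buffer 50 mM Tris pH 8.0, 300 mM NaCl, 1 mM TCEP; 1 h at 37 C in the dark.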
Active calls of the source: *; ? = inconclusive; . = not tested or not shown; [ ] = another dose, or the depositor's remark.

SMILES | TRPML1 agonist | TRPML1 blocker | PINK1 expr mod | CtBP-E1A inh | D2 ag | Six1-Eya2 inh
O=C(CN1CCN(Cc2cccc(C(F)(F)F)c2)CC1)NCC(=O)Nc1ccc(F)c(F)c1F | 1.5 | 0 | 5.4% | -4 | -2.4 | 4
Nc1nonc1C(=O)NCCNC(=O)c1ccc(Cl)c(Cl)c1 | -0.3 | -19 | 0.8% | 0 | 0.1 | 1
COc1ccc(Cl)cc1NC(=O)Cn1cccc1 | 0.7 | 16 | 4.7%[38.3 µM] | -7 | -0.9 | -6
COCCn1nnnc1C(CC(C)C)N1CCN(C(=O)c2ccco2)CC1 (stereo not drawn) | -0.4 | 14 | -0.5% | 0 | -2.1 | 21
Cc1ccc(Nc2cc(=O)[nH]c(=O)[nH]2)c(C)c1 | -0.9 | 19 | -0.4% | -3 | 1.0 | 2
Cc1noc(C)c1CSCC(=O)Nc1cc(S(=O)(=O)N2CCOCC2)ccc1OC(C)C | -1.1 | -6 | 1.5% | 0 | -5.9 | -3
CCOc1ccc(CCNC(=O)C2CCN(Cc3nc(-c4ccc(OC)c(OC)c4)oc3C)CC2)cc1OCC | -0.2 | 7 | 2.5% | . | . | .
Cc1cc(C(=O)N2CCC2(C)C(=O)NS(=O)(=O)c2ccccc2Cl)nn1C (stereo not drawn) | -0.6 | 16 | -0.2% | -22 | -3.2 | 8
Cn1cccc1Cc1nnc(SCC(=O)NCc2ccccc2Cl)n1-c1ccc(F)cc1 | 1.4 | -17 | -4.4% | -1 | -2.0 | -7
Cc1cc(=O)oc2c(N)nccc12 | 0.5 | . | 2.6% | ? | -7.3 | ?
CC(=O)c1c(C)[nH]c(C(=O)COC(=O)c2cc(S(=O)(=O)N(C)c3ccccc3)ccc2Cl)c1C | 0.0 | 5 | 0.2% | 15 | 0.9 | 6
CC(=O)Nc1ccc(Cc2nc3ccccc3[nH]2)cc1 | -0.5 | -22 | 2.7% | 1 | -7.0 | 8

Pulled one by one from above, 3 records:
SMILES | TRPML1 agonist | TRPML1 blocker | PINK1 expr mod | CtBP-E1A inh | D2 ag | Six1-Eya2 inh
Cc1cc(C(=O)N2CCC2(C)C(=O)NS(=O)(=O)c2ccccc2Cl)nn1C (stereo not drawn) | -0.6 | 16 | -0.2% | -22 | -3.2 | 8
CC(=O)c1c(C)[nH]c(C(=O)COC(=O)c2cc(S(=O)(=O)N(C)c3ccccc3)ccc2Cl)c1C | 0.0 | 5 | 0.2% | 15 | 0.9 | 6
CC(=O)Nc1ccc(Cc2nc3ccccc3[nH]2)cc1 | -0.5 | -22 | 2.7% | 1 | -7.0 | 8

More results follow:
SMILES | TRPML1 agonist | TRPML1 blocker | PINK1 expr mod | CtBP-E1A inh | D2 ag | Six1-Eya2 inh
c1ccc(-n2nnnc2NCCCN2CCOCC2)cc1 | 0.1 | -4 | -1.9% | 1 | -1.2 | 7
COC(=O)C(Cc1ccccc1)NC(=O)CNC(=O)c1ccccc1OC (stereo not drawn) | -0.4 | 4 | 0.7% | 4 | -4.2 | 13
Cc1ccc(C(=O)N2CCCC(CCC(=O)N3CCN(c4ccccn4)CC3)C2)cc1 (stereo not drawn) | 1.0 | -20 | -0.6% | -3 | -0.9 | 2
COc1cccc(NC(=O)CN(C)C(=O)c2cc(-c3ccc(F)cc3)nc3ccccc23)c1 | 1.3 | 2 | -1.7% | -1 | 5.5 | 3
Cc1cc(C)n2nc(C(=O)OCC(=O)Nc3ccc4c(c3)OCCO4)nc2n1 | 2.5 | -14 | 0.0% | -6 | 2.9 | 11
CCn1c(CC(=O)Nc2ccccc2F)nnc1SCC(=O)Nc1nnc(C)s1 | -0.3 | 22 | -0.5% | -7 | 2.0 | 0
O=C(Nc1ccc(OC(F)(F)F)cc1)Nc1cccnc1 | -0.3 | 9 | 3.4% | . | -1.6 | 3
COc1ccc(Cc2nnc(NC(=O)CS(=O)(=O)Cc3ccccc3)s2)cc1 | 0.2 | 8 | 0.7% | -1 | -1.3 | 4
O=C(NCc1cccnc1)c1ccccc1-c1nc(-c2ccccc2)no1 | 0.2 | -15 | 0.6% | 4 | 1.4 | -7
CN1CCN(c2ccc(NC(=O)c3cccc(S(=O)(=O)N4CCCC4)c3)cc2)CC1 | 1.8 | 1 | 4.5% | -8 | -1.9 | -4
O=C(Oc1oc(-c2ccco2)nc1C=Nc1ccccc1)c1ccco1 | 0.3 | 6 | 14% | -6 | -3.7 | -17
Cc1ccc(CSc2nc3ccncc3n2CC(=O)Nc2cc(C)cc(C)c2)cc1 | -0.4 | -5 | 1.7% | -3 | -2.8 | -1
CCNC(=O)CSC1=N/C(=C\c2ccc(O)c(OCC)c2)C(=O)N1c1ccc(OC(F)F)cc1 | 2.0 | 20 | 1.4% | 0 | 3.5 | 0
O=C(NCCCO)c1c(O)c2cccc3c2n(c1=O)CCC3 | 0.6 | -1 | 0.4% | 0 | -1.2 | -2
CCN(C(=O)COC(=O)c1ccc[nH]c1=O)c1cccc2ccccc12 | -0.9 | -6 | -1.3% | 6 | -2.1 | 6
COc1ccc(-n2ncc(C(C)NS(=O)(=O)c3ccc(C(C)=O)cc3)c2C)cc1 (stereo not drawn) | 1.4 | -1 | -1.7% | 0 | 0.4 | 5
O=C1CCCN1C(=O)CSc1ncnc2sccc12 | 0.2 | -16 | 0.7% | -1 | -1.4 | -12
COc1ccc(CNc2oc(-c3ccc(COc4ccc(Cl)cc4)o3)nc2C#N)cc1 | 0.7 | -11 | 9.9% | . | . | .
COc1ccc(NC(=O)NCc2cccn2Cc2ccc(F)cc2)cc1OC | 1.8 | 42 | -0.3% | . | . | .
CCOc1ncccc1C(=O)Nc1nc(C(C)(C)C)cs1 | 2.2 | -4 | 11% | . | 3.4 | 21
Fc1ccc(Cn2nnnc2CN2CCN(C3CCCC3)CC2)cc1 | 0.4 | 51 | -2.3% | 31 | -5.3 | 1
CCN(CC)C(=O)c1[nH]cnc1C(=O)Nc1ccc(C)cc1 | -0.6 | 24 | 3.2% | 4 | -2.5 | 1
O=C(CN(Cc1ccc(F)cc1)C(=O)C1CSC(=O)C1)NC1CCCCC1 (stereo not drawn) | 4.0 | 2 | 0.8%[38.3 µM] | 7 | -0.1 | 3
Fc1ccc(CNC(=S)Nc2ccc(OC(F)F)cc2)cc1 | 1.0 | 24 | 1.0% | . | 5.0 | 3
CCN(CC)C(=O)CSc1nc2ncccc2[nH]1 | 0.3 | -17 | 4.8% | 8 | -4.0 | 7
COc1ccc(NC(=O)c2ccc(S(=O)(=O)N3CCCCC3)cc2)cc1OC | 0.9 | -7 | -0.5% | -17 | -8.3 | -7
CC1CCN(c2nc3nonc3nc2Nc2ccc(F)cc2)CC1 | 0.1 | 5 | 0.3% | -5 | 1.1 | -3
C/C=C\C=C\C(=O)Nc1cccc(C2=NOC3(C2)C[C@H](C(N)=O)N(C(=O)c2ccccc2C(=O)c2ccccc2)C3)c1 (stereo partly drawn) | -0.3 | 3 | 5.6% | . | 3.8 | -15
COc1ccc(CCNC(=O)COC(=O)C2CC2)cc1 | -0.6 | 2 | 2.0% | 3 | -2.9 | 2
CCN(CC)CCCN1C(=O)C(=O)/C(=C(/O)c2c(C)nc3ccccn23)C1c1ccc(C)o1 (stereo not drawn) | 1.0 | 17 | 2.2% | . | -0.7 | 4
O=C1C=C(c2cccc3c2sc2ccccc23)C[C@@H](c2ccc(F)cc2)C1 | -0.7 | 1 | 0.1% | 5 | -6.5 | -3
Cc1cc(C)nc(NS(=O)(=O)c2ccc(NC(=S)NC(=O)C(C)(C)C)cc2)n1 | -0.3 | 3 | 5.3%[38.3 µM] | 2 | -3.3 | 0
CCc1ccc(-c2cc(C)no2)cc1S(=O)(=O)Nc1ccc(Cl)cc1 | 1.8 | 13 | ? | . | . | .
COc1cc(N2C(=O)CC3(CCCC3)CC2=O)cc(OC)c1OC | -0.6 | -12 | 2.2% | 6 | -3.1 | -16
CC(=O)c1ccc(NS(=O)(=O)c2ccccc2)cc1 | 0.7 | 8 | 3.3% | -2 | -2.6 | 1
CCOC(=O)C1=C(c2ccccc2)c2ccccc2OC1C(=O)OCC (stereo not drawn) | -0.1 | -8 | 3.1% | 10 | 0.9 | 10
CN(C)c1ccc(C2CNC(c3ccc(Cl)c([N+](=O)[O-])c3)c3[nH]c4ccccc4c32)cc1 (stereo not drawn) | 0.8 | -7 | -0.4% | . | 8.3 | -11
CC(C)(C)C1CCc2c(sc(NC(=O)c3noc4c3CCCC4)c2C#N)C1 (stereo not drawn) | -0.7 | -14 | -0.9% | . | . | .
CCCCC(CC)CNC(=O)c1ncn[nH]1 (stereo not drawn) | 0.3 | -23 | 0.9% | . | -2.8 | -2
COCc1cc(C)nc2c1C(=O)NC(c1ccc(F)cc1)N2Cc1ccccc1 (stereo not drawn) | -0.2 | 9 | 0.6% | . | . | .
CCCCc1nnc(NC(=O)CSc2nc(=O)cc(N)n2-c2ccccc2)s1 | 0.3 | 2 | ? | 4 | 2.3 | -5
Cc1ccc2nc(SC(C)C(=O)NC3CCCC3)[nH]c2c1 (stereo not drawn) | -0.8 | -1 | 0.4% | 5 | -1.4 | -4
O=C(NCCSCc1ccco1)Nc1cc(Cl)cc(Cl)c1 | 0.9 | 3 | ? | -14 | -1.4 | 12
N#C/C(=C\c1ccc(Cl)c([N+](=O)[O-])c1)c1ccccn1 | -0.6 | 4 | -0.5% | -3 | -0.7 | -16
C[C@H](CO)N1C[C@H](C)[C@@H](CN(C)C(=O)NC2CCCCC2)Oc2ccc(NC(=O)Cn3cnnn3)cc2C1=O | -0.2 | ? | -0.1% | 10 | -2.8 | 1
CCOC(=O)C1CCN(C(=O)CSc2cc(=O)n(C)c3ccccc23)CC1 | -0.5 | 6 | 1.0% | -3 | -1.3 | -2
Cc1c(CCC(=O)N2CCC(C(=O)NCCCCCC(=O)O)CC2)c(=O)oc2cc3oc4c(c3cc12)CCCC4 | 0.7 | -2 | 0.6% | -5 | 8.8 | 7
CS(=O)(=O)N(CC(=O)Nc1cccc(Br)c1)Cc1ccccc1 | 0.0 | -10 | 1.4% | -7 | 3.8 | -2
Cc1nnc(SCC(=O)Nc2ccc(N3CCOCC3)cc2)n1-c1ccccc1 | -0.9 | 0 | -1.2% | -1 | -1.2 | -8
COc1cc2c(cc1OC)C(/C(C#N)=N\O)=NC(C)(C)C2 | 0.3 | -10 | 14%[38.3 µM] | 1 | -1.4 | 3
Cc1ccc2nc(-c3ccco3)c(Cc3ccccc3)n2c1 | 0.5 | . | 0.8% | -14 | -3.1 | -5
CCN(c1ccccc1)S(=O)(=O)c1ccc(C(=O)N2CC(C)CC(C)C2)cc1 (stereo not drawn) | 0.3 | 2 | 0.1% | -1 | -3.4 | -1
N/C(=N\NS(=O)(=O)c1ccccc1Cl)c1ccccn1 | 4.7 | 3 | 2.1% | -9 | 2.1 | -16
COc1cc(Cl)c(NC(=O)CN(C)S(=O)(=O)c2ccc3[nH]c4c(c3c2)CCCC4)c(OC)c1 | 1.2 | 20 | 1.8% | . | . | .

Hits appear at their usual frequency. About 1% of those tested had a hit in this group.
